# Rango complex inh = Rango-importin beta binding inhibition | Q14974 | Rango CFP/YFP FRET sensor + importin beta, 45 min | Potency, µM (doses to about 92.2 µM), for inactives: top-dose inhibition of complex formation | 340,000 tested, 0.031% active | AID 540263; active = rising FRET ratio curve, often small or poorly fitted; inconclusive = mostly compound fluorescence or quenching in the first reads; inactive = flat curves in all reads;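 further: potency means the concentration at half of the fitted maximal effect; 0% = DMSO wells and 100% = buffer wells lacking importin beta; nearly all actives have a fitted effect of over 15% in size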
# Target sequence (Q14974 whole entry, looked up): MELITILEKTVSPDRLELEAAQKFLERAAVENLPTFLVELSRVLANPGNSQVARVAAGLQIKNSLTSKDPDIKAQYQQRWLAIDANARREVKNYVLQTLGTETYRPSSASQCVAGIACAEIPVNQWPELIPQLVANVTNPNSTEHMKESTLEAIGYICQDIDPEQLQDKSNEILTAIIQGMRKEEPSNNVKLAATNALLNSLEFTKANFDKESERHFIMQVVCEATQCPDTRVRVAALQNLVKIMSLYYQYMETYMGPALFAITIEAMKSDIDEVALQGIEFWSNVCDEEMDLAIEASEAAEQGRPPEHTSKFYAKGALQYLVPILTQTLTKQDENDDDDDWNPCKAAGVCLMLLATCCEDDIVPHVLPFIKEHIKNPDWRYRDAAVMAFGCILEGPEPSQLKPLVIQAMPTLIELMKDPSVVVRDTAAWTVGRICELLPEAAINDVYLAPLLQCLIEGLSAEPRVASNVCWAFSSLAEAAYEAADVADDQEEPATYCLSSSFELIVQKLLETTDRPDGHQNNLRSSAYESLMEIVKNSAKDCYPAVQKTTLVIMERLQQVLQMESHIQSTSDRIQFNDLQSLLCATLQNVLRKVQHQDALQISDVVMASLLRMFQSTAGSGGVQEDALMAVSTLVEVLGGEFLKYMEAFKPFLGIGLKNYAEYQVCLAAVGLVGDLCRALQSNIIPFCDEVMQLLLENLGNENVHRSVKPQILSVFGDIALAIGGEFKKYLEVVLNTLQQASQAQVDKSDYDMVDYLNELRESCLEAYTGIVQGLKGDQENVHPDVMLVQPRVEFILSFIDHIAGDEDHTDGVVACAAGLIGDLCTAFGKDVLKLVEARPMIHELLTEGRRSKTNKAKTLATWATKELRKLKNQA
#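 Inhibition scored from the CFP 486 nm/YFP 530 nm FRET ratio 45 min after adding 0.125 microM importin beta to 50 nM Rango biosensor preincubated 5 min with compound (room temperature, PBS with DTT, Tween-20, BSA). No-importin wells as positive control.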
# Rango dissoc inh = prevents RanGTP from dissociating the Rango-importin beta complex; Biochemical FRET Rango-importin beta, RanGTP-induced dissociation; AID 540253; 340,000 tested, 0.071% active; Potency, µM (highest dose often 46.1 µM), inactives show at the top dose activity change, negative = inhibition; O95149+P62826; active means falling FRET ratio curve, often poorly fitted, with flat reads before Ran was added; inconclusive means other falling curves, or compound fluorescence or quenching; inactive means flat or rising ratio curve;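 further: potency means the concentration at half of the fitted maximal effect; % of control where 0% means no effect; nearly all actives have a fitted effect of over 45% in size; -100% = wells without RanGTP and RCC1; the record marks most hits as doubtful in a second field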
#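 Compounds preincubate 5 min with complex of recombinant Rango and importin beta in PBS with 1 mM DTT. Ran (0.6 uM) loaded with 2 mM GTP plus 0.2 uM RCC1 starts dissociation; FRET is recorded 45 min later.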
# miR-21 FLuc = raises the signal of a miR-21 reporter | AID 2288 | HeLa miR-21 FLuc reporter, luciferase, 48 h | Potency, µM (titrated, usually from 38.3 µM), inactives show at the highest dose reporter change, positive = more light | 340,000 tested, under 10 active; active = well fitted rising curve with a large enough effect; inconclusive = small, poorly fitted or top-dose-only effect; inactive = no such curve, though single readings can be large or run the other way;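 further: % of control where 0% means no effect; miR-21 action dims this reporter so a rising signal means less miR-21 action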
#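 HeLa cells stably expressing CMV-driven firefly luciferase with a downstream miR-21 binding sequence, endogenously expressing miR-21, were treated with titrations (up to about 40uM final) for 48 hours at 37 degree Celsius. Luciferase luminescence was read after lysis.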
# GLA inh pH 4.5 = alpha-galactosidase A (human) inhibition, pH 4.5; AID 1467; 230,000 tested, under 10 active; activity change, negative = inhibition, % at 105 µM; purified enzyme, 4-MU-alpha-Gal fluorescence, pH 4.5; P06280; inconclusive = small, poorly fitted or top-dose-only inhibition, or a rising curve; inactive = flat fitted curve, though single readings scatter; no compound was filed as active;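 further: 0% = full activity with enzyme and -100% = basal without enzyme; dose as in the result columns while the protocol names 77 µM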
# Starred values were filed as active, the others as inactive; ? = inconclusive; . = not tested or not shown. This is a subset; the hit share may differ from the screen's.
SMILES,Rango complex inh,Rango dissoc inh,miR-21 FLuc,GLA inh pH 4.5
Cn1ncc([N+](=O)[O-])c1C(=O)N1CCCCCC1,-0.3%,2%,1%,.
c1ccc(Nc2nc(-c3cccnc3)cs2)nc1,-2.5%,1%,-35%,4
COc1ccc(N=c2scc(-c3ccc(S(=O)(=O)N4CCOCC4)cc3)n2CCCO)cc1,.,.,?,-14
COc1cc(NS(=O)(=O)c2ccc(NC(=O)c3cccnc3)cc2)ncn1,0.6%,?,-2%,.
Cc1ccc(NC(=O)CSc2n[nH]c(-c3ccncc3)n2)c(C)c1,5.1%,30%,1%,.
Cc1cc(C)c(S(=O)(=O)c2cccc(Cl)c2)c(Cl)n1,0.3%,-3%,4%,-3
O=C(c1ccc(S(=O)(=O)NCc2ccco2)cc1)N1CCN(Cc2ccccc2F)CC1,0.1%,?,.,.
CCOc1ccc(/C=N/Nc2ccc(C(F)(F)F)cc2[N+](=O)[O-])cc1O,-4.1%,7%,-3%,0
O=C(Cn1cc(C(F)(F)F)ccc1=O)OCC(=O)c1ccc[nH]1,2.8%,28%,.,.
CSc1nc(N)nc(SCC(=O)OC(C)C)c1C#N,-2.0%,15%,-70%,-12
C=CCNC(=S)N/N=C1\CCS(=O)(=O)c2ccccc21,0.2%,-3%,2%,.
CCOc1ccc(NS(=O)(=O)c2ccc(NC(=O)C3CC3)cc2)cc1,0.0%,1%,-3%,.
CCN1CCN(C(=O)CCNC(=O)Cn2ccc3ccccc3c2=O)CC1,-0.9%,-5%,-6%,1
CCCc1cc2c(cc1NC(=O)c1ccccc1C)OCO2,1.9%,1%,-21%,1
Cc1cc(C)c(S(=O)(=O)Nc2nnc(C3CCCCC3)s2)c(C)c1,-0.4%,1%,-8%,.
CCOc1ccc2c(c1)[nH]c(=S)n2C,-0.1%,15%,-1%,0
Cc1cccc(NC(=O)CCCN2C(=O)c3cccc4cccc(c34)C2=O)c1,-3.3%,9%,-4%,7
CN(C(=O)c1cccc(C#CC(C)(C)O)c1)C1CCCN(Cc2ccccc2F)C1 (stereo not drawn),-1.2%,-24%,5%,.
CN(c1ncc(C(F)(F)F)cc1Cl)n1cc(C(N)=O)c2ccccc2c1=O,-2.0%,3%,0%,-2
CCCCN(C(=O)c1ccc(C#N)cc1)c1c(N)n(CCC)c(=O)[nH]c1=O,-2.6%,-6%,5%,.
COc1ccc(NC(=O)c2cnn3c(C(F)(F)F)cc(-c4ccco4)nc23)cc1OC,-0.3%,11%,-15%,1
COc1ccc(N(CC(=O)NC2CCCC2)C(=O)Cn2nnc(-c3ccc(C)cc3)n2)cc1OC,3.7%,4%,-3%,5
CCOC(=O)c1cc([N+](=O)[O-])sc1NC(=O)CC,-1.3%,30%,1%,0
O=C(CSc1ncccn1)NC1CCCc2ccccc21 (stereo not drawn),-5.5%,2%,1%,-4
Cc1cc2oc(=O)cc(CN(C)Cc3cccc(F)c3)c2cc1C,0.3%,-3%,-6%,.
O=C(Nc1nnc(-c2ccccc2SCc2ccccc2)s1)Nc1ccccc1F,-0.4%,-3%,-4%,1
CN(C)c1ccc(C(c2nnnn2C(C)(C)C)N2CCc3ccccc3C2)cc1 (stereo not drawn),.,.,-3%,4
CCOC(=O)C(=O)C1=CN(Cc2ccccc2)C=C(C#N)C1,?,?,0%,.
c1ccc(Cc2nn3c(Cn4cnc5ccccc54)nnc3s2)cc1,1.9%,2%,26%,3
COc1ccc(CC(=O)NCc2cccc(CNC(=O)Cc3ccc(OC)c(OC)c3)c2)cc1OC,-1.1%,-17%,-2%,.
COc1ccc(NC(=O)c2ccc(S(=O)(=O)N3CC(C)OC(C)C3)cc2)cc1 (stereo not drawn),-0.9%,-23%,.,.
CCN(c1cccc(C)c1)c1ncnc2nc[nH]c12,-2.6%,9%,2%,4
COc1cccc2c1OCC(C(=O)OCc1cccnc1)=C2,-1.5%,-9%,1%,5
CC1=N/C(=C/c2cccnc2)C(=O)O1,0.3%,2%,-1%,-3
Cc1nc2ccccn2c1C(=O)NCc1ccc2c(c1)OCO2,-1.8%,17%,1%,1
COc1cc(/C=N/N(C)C)cc(Br)c1O,3.6%,8%,-3%,-15
COc1ccc(C(=O)Nc2cccc(C(=O)N3CCCC3)c2)cc1,6.3%,-5%,-24%,-1
COC(=O)c1c(NC(=O)C(C)C)sc2c1C(C(=O)OC)CC2 (stereo not drawn),-0.3%,-6%,-8%,-13
O=C(NCCc1c[nH]c2ccccc12)/C(=C/c1cccnc1)NC(=O)c1ccco1,2.7%,-2%,-4%,2
O=C(C1CCN(C2CC(=O)N(c3ccc(F)cc3)C2=O)CC1)N1CCOCC1 (stereo not drawn),7.8%,1%,1%,-2
O=C1CC(c2ccccc2)C(C(=O)Nc2ccccc2F)N1 (stereo not drawn),2.4%,26%,-2%,1
CCc1ccc(C(=O)COC(=O)C(CCSC)NC(=O)C23CC4CC(CC(C4)C2)C3)cc1 (stereo not drawn),0.9%,9%,-7%,12
CCN(CC)S(=O)(=O)c1ccc(NC(=S)Nc2ccccc2)cc1,1.2%,-1%,0%,.
CCOc1ccccc1NC(=O)c1nc[nH]c1C(=O)Nc1ccccc1OCC,-2.4%,12%,0%,-3
C[C@H](NC(=O)c1nc[nH]c1C(=O)N[C@@H](CCCCN)C(=O)OC(C)(C)C)C(=O)OCc1ccccc1,-0.4%,15%,.,.
COc1ccccc1C(=O)Nc1ccc(C(=O)c2ccccc2)cc1,9.7%,-11%,-29%,-6
CCOC(=O)c1c[nH]c2c(C)ccc(Cl)c2c1=O,2.7%,-16%,1%,8
CCc1ccc(N(C(=O)CNC(=O)c2cccs2)C(C(=O)NC(C)(C)C)c2cc(OC)c(OC)c(OC)c2)cc1 (stereo not drawn),-3.8%,-2%,2%,6
COc1ccc(-c2csc(NC(=O)CN3C(=O)NC4(CCCC4)C3=O)n2)cc1,3.6%,1%,.,.
CCCOc1ccccc1OCC(=O)Nc1ccc(S(=O)(=O)N2CCCC2)cc1,6.8%,10%,.,.
COc1ccccc1S(=O)(=O)CC(O)COc1ccc(F)cc1Cl (stereo not drawn),1.3%,17%,-3%,6
CCCC(=O)Nc1nc(-c2ccc(Cl)s2)cs1,-11%,-9%,2%,9
Nc1ccc2c(c1)Cc1cc(N)c(Cl)cc1-2,1.2%,1%,.,.
O=C(Cc1ccccc1Cl)NCc1cccnc1,6.8%,6%,-11%,.
Cc1ccc(CNC(=O)C2CCCN(S(=O)(=O)c3ccc(F)cc3)C2)cc1 (stereo not drawn),-0.4%,2%,-6%,.
COC(=O)c1ccc(CN=C(NS(=O)(=O)c2ccccc2)c2ccccc2)cc1,-3.4%,6%,.,.
Cc1ccc(NC(=O)C2C(C(=O)O)C3C=CC2C32CC2)cc1 (stereo not drawn),0.4%,-7%,-5%,-4
CCCCn1nnc(NC(=O)c2ccc(-c3ccccc3[N+](=O)[O-])o2)n1,0.5%,-2%,-29%,1
Fc1ccc(CNc2ncnc3cc(Cl)ccc23)cc1,0.0%,-6%,20%,.
CC(NS(=O)(=O)c1ccc(Cl)cc1)C(=O)Nc1ccc2c(c1)OCCO2 (stereo not drawn),-0.5%,0%,-6%,.

# Additional records
SMILES,Rango complex inh,Rango dissoc inh,miR-21 FLuc,GLA inh pH 4.5
Cc1nc(NCCc2cnc[nH]2)c2oc3ccccc3c2n1,4.0%,13%,-2%,2
O=C(/C=C/c1ccc(Cl)cc1)N1CCN(c2ccc([N+](=O)[O-])c(N3CCOCC3)c2)CC1,0.2%,-5%,-1%,-12
COc1ccc(C2=NN(C(=O)CN3CCCCC3)C(c3ccc(OC)cc3)C2)cc1 (stereo not drawn),1.8%,18%,-4%,-5
Cc1ccc(NC(=O)CN2CCN(C(=O)c3ccco3)CC2)cc1S(=O)(=O)N(C)C,0.3%,-4%,.,.
O=C(Cn1ccc(NC(=O)OCc2ccccc2)nc1=O)NCc1nc2ccccc2[nH]1,-3.1%,28%,.,.
COc1ccc(-c2cc(C(=O)N3CCCC3)no2)cc1OC,?,-3%,-69%,.
CC(=O)N(C(C)=O)n1c(/C=C/c2cccc([N+](=O)[O-])c2)nc2ccccc2c1=O,-2.5%,4%,-2%,6
O=C1/C(=C\c2ccc(-c3ccccc3[N+](=O)[O-])o2)C(c2ccccc2)=NN1c1ccccc1,-0.5%,0%,0%,-26
CCOC(=O)c1cc2sccc2n1Cc1ccccc1,-0.2%,-11%,0%,-6
CCOc1cc(N2CCOCC2)c(OCC)cc1NC(=O)Cc1cccc(OC)c1,-0.2%,-7%,-15%,6
COc1ccccc1OCC(=O)Nc1ccc(S(=O)(=O)Nc2cc(C)on2)cc1,3.2%,-1%,-4%,.
CCCCN1C[C@H](C)[C@@H](CC(=O)NCc2ccccc2)C1=O,0.6%,-12%,1%,.
CC(C)OP(=O)(CCP(=O)(OC(C)C)OC(C)C)OC(C)C,-1.0%,-10%,-3%,-14
CC(C)(/C=N/O)/[N+]([O-])=C/c1ccco1,1.1%,-25%,0%,-8
O=C(c1cc(-c2ccccc2Cl)on1)N1CCCC1,-0.4%,-2%,-13%,.
CC12CCC(C(=O)NNc3ccc([N+](=O)[O-])cc3)(CC1=O)C2(C)C (stereo not drawn),0.1%,-12%,-1%,0
Cc1cccc(NC(=O)c2nc[nH]c2C(=O)N[C@@H](C)C(=O)OCc2ccccc2)c1,6.0%,2%,2%,0
O=C(COC(=O)C1CC(=O)N(CCc2ccccc2)C1)c1ccc[nH]1 (stereo not drawn),-4.0%,-1%,.,.
Cc1ccnc(NS(=O)(=O)c2ccc(NC(=O)CSc3nc(-c4ccccc4)cc(=O)[nH]3)cc2)n1,-4.2%,-1%,-5%,-1
COc1ccc(C(=O)NCc2ccccc2)cc1S(=O)(=O)N1CCCc2ccccc21,-3.3%,25%,-1%,-5

# Profiles, quoted from the list.
# COc1ccc(C2=NN(C(=O)CN3CCCCC3)C(c3ccc(OC)cc3)C2)cc1 (stereo not drawn) is entered as Rango complex inh: 1.8%; Rango dissoc inh: 18%; miR-21 FLuc: -4%; GLA inh pH 4.5: -5
# O=C(Cn1ccc(NC(=O)OCc2ccccc2)nc1=O)NCc1nc2ccccc2[nH]1 is entered as Rango complex inh: -3.1%; Rango dissoc inh: 28%; miR-21 FLuc: .; GLA inh pH 4.5: .

# Continued.
SMILES,Rango complex inh,Rango dissoc inh,miR-21 FLuc,GLA inh pH 4.5
O=C(Nc1ccc2c(c1)OCO2)c1ccc(Br)c(S(=O)(=O)N2CCCC2)c1,0.1%,0%,21%,-2
CCN(CC(=O)Nc1ccccc1C(F)(F)F)C(=O)CCc1c(C)[nH]c(=O)c(C#N)c1C,0.0%,-3%,-8%,.
O=C(CSc1nnc(CNC(=O)c2ccccc2F)o1)c1ccccc1,0.6%,0%,-11%,6
CC(C)CNC(=O)c1cccc(NC(=O)c2ccc(Cl)c([N+](=O)[O-])c2)c1,0.5%,3%,0%,-6
CC(=O)c1ccc(NC(=O)C2CCCN2S(=O)(=O)c2ccc(C)cc2)cc1 (stereo not drawn),-1.3%,0%,-12%,5

# Structural class: those above with a Cl atom (12)
SMILES,Rango complex inh,Rango dissoc inh,miR-21 FLuc,GLA inh pH 4.5
Cc1cc(C)c(S(=O)(=O)c2cccc(Cl)c2)c(Cl)n1,0.3%,-3%,4%,-3
CN(c1ncc(C(F)(F)F)cc1Cl)n1cc(C(N)=O)c2ccccc2c1=O,-2.0%,3%,0%,-2
CCOC(=O)c1c[nH]c2c(C)ccc(Cl)c2c1=O,2.7%,-16%,1%,8
COc1ccccc1S(=O)(=O)CC(O)COc1ccc(F)cc1Cl (stereo not drawn),1.3%,17%,-3%,6
CCCC(=O)Nc1nc(-c2ccc(Cl)s2)cs1,-11%,-9%,2%,9
Nc1ccc2c(c1)Cc1cc(N)c(Cl)cc1-2,1.2%,1%,.,.
O=C(Cc1ccccc1Cl)NCc1cccnc1,6.8%,6%,-11%,.
Fc1ccc(CNc2ncnc3cc(Cl)ccc23)cc1,0.0%,-6%,20%,.
CC(NS(=O)(=O)c1ccc(Cl)cc1)C(=O)Nc1ccc2c(c1)OCCO2 (stereo not drawn),-0.5%,0%,-6%,.
O=C(/C=C/c1ccc(Cl)cc1)N1CCN(c2ccc([N+](=O)[O-])c(N3CCOCC3)c2)CC1,0.2%,-5%,-1%,-12
O=C(c1cc(-c2ccccc2Cl)on1)N1CCCC1,-0.4%,-2%,-13%,.
CC(C)CNC(=O)c1cccc(NC(=O)c2ccc(Cl)c([N+](=O)[O-])c2)c1,0.5%,3%,0%,-6
